Source: PubChem
HIV Env fusion: inhibitors of HIV Env-mediated cell fusion; HeLa-JRFL Env/CEM21 cell fusion, luciferase; inhibition, % at 12.3 µM; 360,000 tested, 1.1% active;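 active = mean replicate inhibition score of at least 50 and every replicate individually at or above 50; inconclusive = only one of the two criteria met; inactive = mean below 50 and not all replicates reaching 50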;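 also: 0% = plate neutral controls and 100% = maraviroc near 300 nM; one replicate is shown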
Yeast UUG start: modulators of start codon recognition fidelity in yeast. S. cerevisiae UUG-firefly luciferase reporter, luminescence/redox ratio. activity score, % at 18.7 µM. 350,000 tested, 0.13% active. AID 602363;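 active = replicate mean at a twofold rise or more, about +100% in these data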;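 also: firefly luciferase made from a UUG start codon reports start codon fidelity; reporter light over untreated wells divided by growth signal over untreated wells; some hits fall short of that in this replicate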
The depositor's hits bear a star; ? = inconclusive; [ ] = dose if it differs, or a comment.

SMILES	HIV Env fusion	Yeast UUG start
O=C(C[C@H]1C[C@H]2c3cc(NS(=O)(=O)c4ccc(F)cc4)ccc3O[C@H]2[C@H](CO)O1)NCc1ccc(Cl)cc1	26[16.7 µM]	-4
C[C@@H]1CN([C@@H](C)CO)C(=O)c2cc(NC(=O)Cc3ccccc3)ccc2O[C@@H]1CN(C)Cc1ccccc1	4[16.7 µM]	-1
Cc1ccc(S(=O)(=O)N(C)C[C@@H]2Oc3ccc(NC(=O)Nc4cccc5ccccc45)cc3CC(=O)N([C@@H](C)CO)C[C@H]2C)cc1	12[16.7 µM]	-3
C[C@@H]1CN([C@@H](C)CO)C(=O)Cc2cc(NS(=O)(=O)c3ccccc3)ccc2O[C@@H]1CN(C)S(=O)(=O)c1ccc(Cl)cc1	0[16.7 µM]	-4
CC(C)C#Cc1cnc2c(c1)C(=O)N([C@H](C)CO)C[C@@H](C)[C@@H](CN(C)C(=O)Nc1ccccc1)O2	-16[16.7 µM]	30
CC(C)NC(=O)N(C)C[C@H]1OCCCC[C@H](C)Oc2ccc(NC(=O)Nc3ccc(F)cc3)cc2C(=O)N([C@H](C)CO)C[C@@H]1C	21[16.7 µM]	4
C[C@@H]1CN([C@H](C)CO)S(=O)(=O)c2ccc(C#CCC3CCCC3)cc2O[C@H]1CN(C)C(=O)c1cnccn1	?	26
C[C@@H]1CCCCO[C@@H](CN(C)S(=O)(=O)c2ccc(Cl)cc2)[C@@H](C)CN([C@@H](C)CO)C(=O)c2cc(NS(=O)(=O)c3ccc(F)cc3)ccc2O1	-5[16.7 µM]	22
C[C@@H]1CN([C@@H](C)CO)C(=O)c2cc(NS(=O)(=O)c3cn(C)cn3)ccc2O[C@@H](C)CCCCO[C@@H]1CN(C)Cc1ccc(C(=O)O)cc1	27[16.7 µM]	-3
C[C@H](CO)N1C[C@H](C)[C@H](CN(C)S(=O)(=O)c2ccc(Cl)cc2)OCCCC[C@H](C)Oc2ccc(NS(=O)(=O)c3cn(C)cn3)cc2C1=O	4[16.7 µM]	12
O=C(N[C@@H]1CC[C@@H](CCn2cc(-c3ccccn3)nn2)O[C@H]1CO)c1ccccc1	6[16.7 µM]	-4
C[C@H](CO)N1C[C@H](C)[C@H](CN(C)S(=O)(=O)c2ccccc2)OCCCC[C@H](C)Oc2ccc(NC(=O)CCCN(C)C)cc2C1=O	-8[16.7 µM]	4
C[C@H](CO)N1C[C@H](C)[C@H](CN(C)S(=O)(=O)c2ccc(Cl)cc2)OCCCC[C@H](C)Oc2ccc(NC(=O)Nc3cccc4ccccc34)cc2C1=O	-75[16.7 µM]	-1
C[C@@H]1CCCCO[C@H](CN(C)S(=O)(=O)c2ccccc2)[C@H](C)CN([C@@H](C)CO)C(=O)c2cc(NS(C)(=O)=O)ccc2O1	-12[16.7 µM]	4
C/C=C/c1cnc2c(c1)C(=O)N([C@@H](C)CO)C[C@@H](C)[C@@H](CN(C)S(=O)(=O)c1ccc(C)cc1)O2	15[16.7 µM]	7

9 structures from above, sorted by heavy-atom count, descending.
SMILES	HIV Env fusion	Yeast UUG start
C[C@H](CO)N1C[C@H](C)[C@H](CN(C)S(=O)(=O)c2ccc(Cl)cc2)OCCCC[C@H](C)Oc2ccc(NC(=O)Nc3cccc4ccccc34)cc2C1=O	-75[16.7 µM]	-1
C[C@@H]1CCCCO[C@@H](CN(C)S(=O)(=O)c2ccc(Cl)cc2)[C@@H](C)CN([C@@H](C)CO)C(=O)c2cc(NS(=O)(=O)c3ccc(F)cc3)ccc2O1	-5[16.7 µM]	22
C[C@H](CO)N1C[C@H](C)[C@H](CN(C)S(=O)(=O)c2ccc(Cl)cc2)OCCCC[C@H](C)Oc2ccc(NS(=O)(=O)c3cn(C)cn3)cc2C1=O	4[16.7 µM]	12
Cc1ccc(S(=O)(=O)N(C)C[C@@H]2Oc3ccc(NC(=O)Nc4cccc5ccccc45)cc3CC(=O)N([C@@H](C)CO)C[C@H]2C)cc1	12[16.7 µM]	-3
CC(C)NC(=O)N(C)C[C@H]1OCCCC[C@H](C)Oc2ccc(NC(=O)Nc3ccc(F)cc3)cc2C(=O)N([C@H](C)CO)C[C@@H]1C	21[16.7 µM]	4
C[C@@H]1CN([C@@H](C)CO)C(=O)Cc2cc(NS(=O)(=O)c3ccccc3)ccc2O[C@@H]1CN(C)S(=O)(=O)c1ccc(Cl)cc1	0[16.7 µM]	-4
C[C@@H]1CN([C@@H](C)CO)C(=O)c2cc(NC(=O)Cc3ccccc3)ccc2O[C@@H]1CN(C)Cc1ccccc1	4[16.7 µM]	-1
CC(C)C#Cc1cnc2c(c1)C(=O)N([C@H](C)CO)C[C@@H](C)[C@@H](CN(C)C(=O)Nc1ccccc1)O2	-16[16.7 µM]	30
O=C(N[C@@H]1CC[C@@H](CCn2cc(-c3ccccn3)nn2)O[C@H]1CO)c1ccccc1	6[16.7 µM]	-4

Continuation.
SMILES	HIV Env fusion	Yeast UUG start
NC(=O)[C@@H]1[C@H]2C(=O)O[C@H](c3ccccc3)[C@H](c3ccccc3)N2[C@H](c2ccc(O)cc2)[C@@]12C(=O)Nc1ccccc12	-6[16.7 µM]	6
C[C@H](CO)N1C[C@H](C)[C@H](CN(C)C(=O)C2CCCCC2)Oc2cc(Br)ccc2S1(=O)=O	55*[16.7 µM]	1
COc1ccccc1NC(=O)N(C)C[C@@H]1Oc2ncc(C#CCC(C)C)cc2C(=O)N([C@@H](C)CO)C[C@@H]1C	8[16.7 µM]	13
C[C@@H]1CN([C@@H](C)CO)C(=O)Cc2cc(NS(=O)(=O)c3ccc(Cl)cc3)ccc2O[C@@H]1CN(C)S(C)(=O)=O	-31[16.7 µM]	2
C[C@@H]1CN([C@@H](C)CO)C(=O)c2cc(/C=C/c3ccccc3)cnc2O[C@@H]1CN(C)C(=O)c1cccnc1	10[16.7 µM]	-11
C[C@H](CO)N1C[C@H](C)[C@@H](CN(C)S(=O)(=O)c2ccc(F)cc2)Oc2ccc(NC(=O)Nc3cccc4ccccc34)cc2C1=O	1[16.7 µM]	-11
O=C(C[C@H]1C=C[C@@H](NC(=O)c2ccc(F)cc2)[C@@H](CO)O1)NCc1ccncn1	-6[16.7 µM]	3
CCCNC(=O)N(C)C[C@H]1Oc2ncc(-c3ccc(OC)cc3)cc2C(=O)N([C@H](C)CO)C[C@H]1C	9[16.7 µM]	-9
C[C@H]1CCCCO[C@H](CN(C)C(=O)C2CCCCC2)[C@@H](C)CN([C@@H](C)CO)C(=O)c2cc(NC(=O)Nc3cccc4ccccc34)ccc2O1	36[16.7 µM]	-12
C[C@@H]1CCCCO[C@H](CN(C)C(=O)Nc2cccc3ccccc23)[C@@H](C)CN([C@@H](C)CO)C(=O)c2cc(NS(=O)(=O)c3cn(C)cn3)ccc2O1	0[16.7 µM]	-2
CNC[C@H]1Oc2ncc(-c3cncnc3)cc2C(=O)N([C@H](C)CO)C[C@@H]1C	-6[16.7 µM]	4
C[C@@H]1CCCCO[C@H](CN(C)C(=O)Nc2ccccc2)[C@H](C)CN([C@@H](C)CO)C(=O)c2cc(NC(=O)CCCN(C)C)ccc2O1	13[16.7 µM]	2
CCCNC(=O)Nc1ccc2c(c1)C(=O)N(C)C[C@@H](OC)[C@@H](C)CN(CCC)[C@@H](C)CO2	-2[16.7 µM]	-10
CC(C)CC#Cc1ccc2c(c1)O[C@@H](CN(C)C)[C@@H](C)CN([C@@H](C)CO)S2(=O)=O	-16[16.7 µM]	-2
O=C(C[C@H]1CC[C@H](NC(=O)C2CCC2)[C@@H](CO)O1)NCc1ccccc1Cl	-5[16.7 µM]	-5
C[C@@H]1CN([C@H](C)CO)C(=O)Cc2cc(NC(=O)Nc3ccc4c(c3)OCO4)ccc2O[C@@H]1CN(C)S(=O)(=O)c1cccs1	0[16.7 µM]	-9
O=C(C[C@@H]1C[C@H]2c3cc(NC(=O)CC4CC4)ccc3O[C@H]2[C@H](CO)O1)NCCc1ccccc1	-7[16.7 µM]	16
CC(C)NC(=O)N(C)C[C@H]1OCCCC[C@H](C)Oc2ccc(NC(=O)Nc3ccc4c(c3)OCO4)cc2C(=O)N([C@@H](C)CO)C[C@H]1C	2[16.7 µM]	6
CCCC#Cc1cnc2c(c1)C(=O)N([C@H](C)CO)C[C@@H](C)[C@H](CN(C)C(=O)Nc1ccc(OC)cc1)O2	22[16.7 µM]	8
C[C@H](CO)N1C[C@H](C)[C@H](CN(C)C)Oc2cc(Br)ccc2S1(=O)=O	9[16.7 µM]	13
COc1ccc(CNC(=O)C[C@H]2CC[C@@H](NC(=O)CN(C)C)[C@@H](CO)O2)cc1	14[16.7 µM]	1
COc1ccc(NC(=O)N(C)C[C@H]2OCCCC[C@H](C)Oc3ccc(NS(=O)(=O)c4cn(C)cn4)cc3C(=O)N([C@@H](C)CO)C[C@@H]2C)cc1	2[16.7 µM]	-20
C[C@@H]1CN([C@H](C)CO)C(=O)c2cc(NC(=O)C3CC3)ccc2O[C@@H]1CN(C)C(=O)Nc1ccccc1	7[16.7 µM]	-9
O=C(C[C@H]1C=C[C@H](NC(=O)C2CCC2)[C@H](CO)O1)NCC1CC1	5[16.7 µM]	-10
CC(C)C#Cc1ccc2c(c1)O[C@@H](CN(C)CC1CCCC1)[C@H](C)CN([C@@H](C)CO)S2(=O)=O	14[16.7 µM]	4
COC(=O)C(CC#Cc1ccc2c(c1)[C@]1(C(=O)N2)[C@H](c2ccc(OCCO)cc2)N2[C@H](c3ccccc3)[C@H](c3ccccc3)OC(=O)[C@H]2[C@@H]1C(=O)N1CCCCCCC1)C(=O)OC	10[16.7 µM]	-7
CCNC(=O)C[C@@H]1CC[C@@H]2[C@H](COc3ccc(NC(=O)NC(C)C)cc3C(=O)N2C)O1	6[16.7 µM]	-5
COc1ccccc1S(=O)(=O)N(C)C[C@@H]1Oc2ncc(-c3ccc(C)cc3)cc2C(=O)N([C@@H](C)CO)C[C@@H]1C	0[16.7 µM]	18
C[C@@H]1CCCCO[C@H](CN(C)CC2CCCCC2)[C@H](C)CN([C@@H](C)CO)C(=O)c2cc(NC(=O)NC3CCCCC3)ccc2O1	23[16.7 µM]	1
COc1ccc([Si](C)(C)[C@@H]2[C@@H](CCn3cc(CCO)nn3)O[C@]3(C(=O)N(Cc4ccc(N5CCC5=O)cc4)c4ccccc43)[C@H]2C)cc1	7[16.7 µM]	17
C[C@H](CO)N1C[C@H](C)[C@H](CN(C)S(=O)(=O)c2ccccc2)Oc2ncc(C#Cc3cccc(F)c3)cc2C1=O	-2[16.7 µM]	-9
CCCC#Cc1cnc2c(c1)C(=O)N([C@@H](C)CO)C[C@@H](C)[C@@H](CN(C)S(C)(=O)=O)O2	6[16.7 µM]	9
C[C@H](CO)N1C[C@H](C)[C@@H](CN(C)Cc2ccc(C(F)(F)F)cc2)Oc2ccc(NS(=O)(=O)c3cccs3)cc2C1=O	23[16.7 µM]	6
CCC(=O)N(C)C[C@@H]1Oc2cc(-c3cccc(F)c3)ccc2S(=O)(=O)N([C@@H](C)CO)C[C@H]1C	7[16.7 µM]	-4
Cc1noc(C)c1S(=O)(=O)N(C)C[C@@H]1Oc2ccc(NS(=O)(=O)c3ccc(Cl)cc3)cc2CC(=O)N([C@@H](C)CO)C[C@@H]1C	8[16.7 µM]	7
C[C@@H]1CN([C@H](C)CO)C(=O)c2cc(C3=CCCCC3)cnc2O[C@@H]1CN(C)C(=O)CN1CCOCC1	-53[16.7 µM]	-10
C/C=C/c1ccc2c(c1)O[C@H](CN(C)C)[C@H](C)CN([C@@H](C)CO)S2(=O)=O	6[16.7 µM]	2
COCC(=O)Nc1ccc2c(c1)C(=O)N(C)[C@H]1CC[C@H](CC(=O)Nc3ccccc3F)O[C@@H]1CO2	-19[16.7 µM]	-10
Cn1cnc(S(=O)(=O)N[C@@H]2C=C[C@@H](CC(=O)NCC3CC3)O[C@H]2CO)c1	-2[16.7 µM]	28
C[C@@H]1CN([C@@H](C)CO)C(=O)c2cc(C#C[C@@H](C)O)cnc2O[C@@H]1CN(C)Cc1cccc(F)c1	9[16.7 µM]	-13
Cc1noc(C)c1NC(=O)Nc1ccc2c(c1)C(=O)N([C@H](C)CO)C[C@@H](C)[C@H](CN(C)C)OCCCC[C@H](C)O2	15[16.7 µM]	24
Cc1noc(C)c1S(=O)(=O)Nc1ccc2c(c1)C(=O)N([C@H](C)CO)C[C@H](C)[C@H](CN(C)S(=O)(=O)c1ccccc1)OCCCC[C@@H](C)O2	-10[16.7 µM]	-7
CCC(=O)N1C[C@@H](C)[C@H](OC)CN(C)C(=O)c2ccc(NC(=O)NC(C)C)cc2OC[C@H]1C	-13[16.7 µM]	11
C[C@H](CO)N1C[C@H](C)[C@H](CN(C)C(=O)C2CCCCC2)Oc2ncc(-c3cccc(C#N)c3)cc2C1=O	8[16.7 µM]	10
CC(C)NC(=O)N[C@H]1CC[C@@H](CCNS(=O)(=O)c2ccc(F)cc2)O[C@@H]1CO	-1[16.7 µM]	3
C[C@@H]1CN([C@H](C)CO)C(=O)CCCn2nncc2CO[C@@H]1CN(C)Cc1cccc2c1OCCCO2	-10[16.7 µM]	-4
C[C@@H]1CN([C@H](C)CO)C(=O)c2cccc(NC(=O)c3cnccn3)c2O[C@H]1CN(C)CC1CCCCC1	25[16.7 µM]	12
Cc1ccc(S(=O)(=O)Nc2ccc3c(c2)C(=O)N([C@@H](C)CO)C[C@@H](C)[C@H](CN(C)C(=O)Nc2c(C)noc2C)OCCCC[C@H](C)O3)cc1	3[16.7 µM]	-2
F[B-](F)(F)c1cncc2ccccc12	-21	-6
C[C@@H]1CN([C@H](C)CO)C(=O)c2cc(NC(=O)C3CCCCC3)ccc2O[C@@H](C)CCCCO[C@H]1CN(C)C(=O)Nc1ccc2c(c1)OCO2	-18[16.7 µM]	-6
Cc1noc(C)c1NC(=O)Nc1ccc2c(c1)CC(=O)N([C@H](C)CO)C[C@H](C)[C@H](CN(C)CC1CCCCC1)O2	-20[16.7 µM]	0

A portion of the library; rates above refer to the full screens.
